Compound activity as filed in PubChem BioAssay.
Ba CapD inh: blocks the Bacillus anthracis CapD enzyme. z-score (no concentration beside the values). AID 492967. purified CapD enzyme, fluorescence intensity read-out; active compounds read low; some hits fall short of the stated cut. 140,000 tested, 0.23% active;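 active = z-score under -4 in either of two replicates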;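 also: stock transfer was 100 nL into about 40 µL; score is relative to mean and spread of the plate; one replicate is shown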
AID504770: growth inhibitors of E. coli YBA685 in a screen for V. cholerae RctB (chromosome II replication) inhibitors | E. coli YBA685 rctB-dependent plasmid, OD600 growth, 3 h; active compounds read low | z-score (concentration not given with the values) | 130,000 tested, 0.27% active | AID 504770;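 active = z-score under -2 on both plates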;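 also: wells of about 30 µL received 100 nL stock; score is relative to mean and SD of the test wells; the first replicate is given; strong numbers were not always called active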
* = called active by the depositor; nt = not tested or not shown.

Start of the listing, in advance:
smiles,Ba CapD inh,AID504770
Cc1noc(C)c1COC(=O)c1cccnc1SCC(=O)Nc1ccccc1OC(F)F,nt,1.3
CC(NC(=O)C1CCC(CNS(=O)(=O)c2ccccc2)CC1)c1ccc2c(c1)OCCO2 (stereo not given),0.25,0.7
CC(=O)NC(Cc1ccccc1)C(=O)NC1CCN(C(=O)c2ccccc2)CC1 (stereo not given),nt,-0.15
CNc1nc2c(Cl)cc(Cl)cc2s1,0.03,1.4

The listing, from the first entry:
smiles,Ba CapD inh,AID504770
Cc1noc(C)c1COC(=O)c1cccnc1SCC(=O)Nc1ccccc1OC(F)F,nt,1.3
CC(NC(=O)C1CCC(CNS(=O)(=O)c2ccccc2)CC1)c1ccc2c(c1)OCCO2 (stereo not given),0.25,0.7
CC(=O)NC(Cc1ccccc1)C(=O)NC1CCN(C(=O)c2ccccc2)CC1 (stereo not given),nt,-0.15
CNc1nc2c(Cl)cc(Cl)cc2s1,0.03,1.4
CC1CCN(CC(=O)Nc2cccc(C(F)(F)F)c2)CC1,-0.215,-0.25
CC(C)N(C(=O)CSc1nnc2sc3ccccc3n12)c1ccccc1,nt,-0.9
COc1nc2ccccc2nc1CCC(=O)NC1CCCCCC1,16.8,1
O=C(NC(=S)NCCC1=CCCCC1)c1ccco1,nt,-0.55
COc1ccc(OC)c2c(C)cc(N3CCN(C(=O)c4ccc(Cl)cc4)CC3)nc12,5.54,-0.45
CC(OCc1ccccc1)C(NC(=O)c1cc(=O)n(-c2ccccc2)[nH]1)C(N)=O (stereo not given),0.16,nt
O=c1cc(N2CCCCC2)c(-c2ccccc2)nn1Cc1cccc(Cl)c1,-0.19,nt
O=C(CN1CCN(Cc2ccccc2)C1=O)NC1CCCCCCC1,-2.15,-0.55
CCOC(=O)Nc1cncc(Br)c1,-0.245,0.1
CC1CC(N(C(=O)CN2C(=O)c3ccccc3C2=O)c2ccccc2)c2ccccc2N1C(=O)CN1C(=O)c2ccccc2C1=O (stereo not given),-0.905,nt
Cc1c(Cl)cccc1NC(=S)N(CCN(C)C)C1CCN(C(C)C)CC1,0.16,0.25
[N-]=[N+]=c1c(=O)ccc2c(=O)c3ccccc3c(=O)c1=2,-2.44,-6.35*
Cc1nc(=S)sn1-c1nc(Nc2ccccc2)nc(Nc2ccccc2)n1,-0.04,-0.7
CCOC(=O)C1SCCN1c1ccc(C)cc1 (stereo not given),-1.18,0.35
O=C(c1ccccn1)N1CCC(C(O)(c2ccccc2)c2ccccc2)CC1,nt,0.5
COc1cc(C(=O)Oc2ccc3c(=O)c(Oc4cccc(C)c4)coc3c2)cc(OC)c1OC,0.185,nt
COc1cc2c(cc1OC)C(c1ccc(N)cc1)NCC2 (stereo not given),0.785,nt
COc1ccc(C2CCCCCN2C(=O)c2nn(C)c(=O)c3ccccc23)cc1 (stereo not given),nt,0.05
Cc1nc2ccccc2c2oc(C(=O)NCCN(C)C3CCCCC3)cc12,-1.26,0.25
CCCCn1c(SC(CC)C(=O)Nc2ccc3c(c2)OCO3)nc2ccsc2c1=O (stereo not given),-0.285,2
Cc1ccc2cc3cc(C(=O)NCCCN4CCCCCC4)sc3nc2c1,8.45,-0.65
CCC(=O)N1c2ccc(S(=O)(=O)NC3CCCCC3C)cc2CC1C (stereo not given),3.82,2
CCn1c2ccccc2c2cc(CN3CCN(Cc4cccc(C)c4)CC3)ccc21,-0.06,-0.85
CN(C)CCn1c(C(=O)O)cc2ccccc21,0.515,-0.5
O=C(Nc1ccc2ccccc2c1)c1ccco1,-0.68,-0.05
N/N=c1/nc2sccn2c2ncccc12,22.2,1.05
O=S(=O)(NCC(O)CN1CCOCC1)c1ccc2ccccc2c1 (stereo not given),nt,-0.05
CC1=C(C(=O)Nc2ccc(C)cc2)C(c2ccc(Cl)cc2)NC(=O)N1 (stereo not given),-0.53,nt
Cc1ccc(CNC(=O)c2ccc3c(c2)C2C=CCC2C(c2ccc([N+](=O)[O-])cc2)N3)cc1C (stereo not given),-0.695,nt
CN(C)/C=C/C(=O)c1cc(F)ccc1O,0.14,0.75
CC1CCCC(C)N1NC(=O)c1cccc(N(C)C)c1 (stereo not given),nt,0.3
CCOC(=O)/C(C)=N\N1CCc2ccccc21,-2.33,nt
Cc1ccccc1CC1SC(=Nc2ccc(Br)cc2)NC1=O (stereo not given),0.02,nt
CCc1ccc(C2C3=C(CCCC3=O)Nc3[nH]n(-c4ccccc4)c(=O)c32)cc1 (stereo not given),-0.835,-0.2
CCCOC(=O)c1ccc(N2COc3ccc4c(C)cc(=O)oc4c3C2)cc1,6.04,0.05
CCOC(=O)C1CCN(Cc2nc(-c3ccc(Cl)cc3)no2)CC1,-0.575,-0.65
O=C(NCCCN1CCCCCC1)c1cc2c(=O)oc3ccccc3c2s1,60.3,0.85
CCc1ccc(N2CC(O)(c3ccc(OC)c(OC)c3)[N+]3=C2CCCC3)cc1 (stereo not given),0.06,nt
CCCCN(CC)C(=O)c1ccccc1SCC,-0.7,2.75
Nc1cc(N)nc(SCC(=O)N2CCCCC2)n1,nt,1.7
O=C(c1ccco1)N1N=C(c2ccccc2)CC1c1ccccc1 (stereo not given),-0.235,0.1
CN1C(=O)N(C)C(NNC(N)=S)C1NNC(N)=S (stereo not given),-0.295,nt
CCn1c(-c2csc3ccccc23)n[nH]c1=S,-0.05,-0.1
CC1=C(C(=O)OC2CCCCCCC2)C(c2ccc(Cl)c(Cl)c2)CC(=O)N1 (stereo not given),2.96,nt
CCOC(=O)CC(=O)CSc1nnc(N)s1,0.015,nt
O=c1[nH]c2ccccc2c(=O)n1CCN1CCSCC1,0.69,-1
Cn1c(SCc2cccc(C#N)c2)nc2ccccc2c1=O,0.08,0.2
Clc1nc(NCCN2CCOCC2)nc(NC2CCCCC2)n1,0.51,0.65
Nc1cc(-c2ccc(Cl)cc2)nn1S(=O)(=O)c1ccc(Cl)cc1,0.27,0.05
CCOC(=O)C1CCCN(Cc2ccccc2)C1 (stereo not given),0.615,-0.65
Cc1ccccc1NC1=NC(C)(C)Cc2ccccc21,-0.005,nt
CNC(=O)CSc1nnc(-c2ccco2)n1CC1CCCO1 (stereo not given),nt,1.45
Cn1ncc(NC(=O)Nc2ccc(F)cc2F)c1C(N)=O,0.05,-1.05
CN(C)S(=O)(=O)c1ccc(C(=O)C2=C3SC=C(c4ccc(F)cc4)N3CC2)cc1,nt,-2.25
Cc1nc(-c2ccccc2)sc1C(=O)NC(=O)c1ccccc1O,-0.87,-0.15
Cc1nn(-c2ccc(Cl)cc2)c2sc(C(=O)OCCC3CCCCN3C)cc12 (stereo not given),nt,1.3

Pulled by structure from the list above, 4 records:
smiles,Ba CapD inh,AID504770
CC1=C(C(=O)OC2CCCCCCC2)C(c2ccc(Cl)c(Cl)c2)CC(=O)N1 (stereo not given),2.96,nt
O=C(c1ccco1)N1N=C(c2ccccc2)CC1c1ccccc1 (stereo not given),-0.235,0.1
CCc1ccc(N2CC(O)(c3ccc(OC)c(OC)c3)[N+]3=C2CCCC3)cc1 (stereo not given),0.06,nt
Cc1nn(-c2ccc(Cl)cc2)c2sc(C(=O)OCCC3CCCCN3C)cc12 (stereo not given),nt,1.3

(cont.)
Every second line gives: Ba CapD inh | AID504770
COc1ccc(S(=O)(=O)CC(SC#N)c2ccccc2)cc1 (stereo not given)
    -1.12 | 0.7
COc1ccc(C2CC(=O)C3=C(C2)NC(C)=C(C(=O)OC(C)C)C3c2cccc(Cl)c2)cc1OC (stereo not given)
    37.2 | nt
COC(=O)Cn1c(=N)n(Cc2ccc(C(C)(C)C)cc2)c2ccccc21
    -0.35 | -0.15
COCCN1CCn2c(nc3cc(NC(C)=O)ccc32)C1
    33 | -1.3
CC1=C(C(=O)Nc2ccc(Cl)cc2)C(c2ccncc2)C(C#N)=C(SCC(N)=O)N1 (stereo not given)
    0.27 | nt
CC1CC(C)CN(C(=O)Nc2cccc(Cl)c2)C1 (stereo not given)
    -0.395 | -0.25
C/C(=C\C(=O)c1ccccc1)Nc1cccc(O)c1
    -2.38 | -1
CN(CC(F)(F)C(F)F)S(=O)c1ccc2ccccc2c1 (stereo not given)
    nt | -0.85
N#Cc1ccccc1N=Cc1cccc(O)c1O
    1.5 | -1.3
N#CC1=C(N)Oc2n[nH]c(-c3ccc(F)cc3)c2C1c1cn[nH]c1-c1ccc(F)cc1 (stereo not given)
    -0.595 | nt
COc1cccc2c1N(C(=O)CN1C(=O)CCC1=O)C(C)(C)c1ssc(=S)c1-2
    0.665 | nt
Cc1cc(C)nc(NS(=O)(=O)c2ccc(NC(=O)CC(NC(=O)C(F)(F)F)c3ccccc3)cc2)n1 (stereo not given)
    0.425 | nt
FC(F)(F)C1(C(F)(F)F)N=C(c2ccco2)OC(N2CCOCC2)=N1
    35.8 | nt
O=C(CC1OC(=O)c2ccccc21)N/N=C/c1cc(Cl)cc(Cl)c1 (stereo not given)
    -0.585 | nt
COc1ccc(-n2cc(-c3ccccc3)c3c(SC)ncnc32)cc1
    1.41 | 0.6
CCC(C)NC(=O)CSc1ncccc1C(=O)OC(C)C (stereo not given)
    -1.2 | -0.7
CN1CCCC1CCNC(=O)OCCc1ccc(Cl)cc1 (stereo not given)
    -0.89 | nt
CCS/C=C(\NC(=O)c1ccccc1)[P+](c1ccccc1)(c1ccccc1)c1ccccc1
    -0.49 | nt
COc1c(/C(N)=N/O)cc(C)c2c1CCC2
    0.57 | -0.45
O=C(CSC1=NCCS1)NC1CCCc2ccccc21 (stereo not given)
    nt | 0.5
CCc1ccc(NC(=O)NC2CCN(Cc3ccccc3)CC2)cc1
    -1.25 | 2.05
Cc1noc(C)c1COC(=O)C1CSC2(C)CCC(=O)N12 (stereo not given)
    nt | -0.5
COc1cc(-c2[nH]c(=O)c(C(=O)O)cc2C(=O)O)cc(OC)c1OC
    0.01 | nt
O=C(Nc1nc(-c2ccc3c(c2)CCCC3)cs1)c1cccnc1
    -0.285 | 0.35
CC(=O)Nc1cccc(C(=O)NCCc2nc3ccccc3[nH]2)c1
    0.125 | -0.75
NNC(=O)OC12CC3CC(CC(C3)C1)C2
    -0.685 | 1.05
CCc1ccc(NC(=O)N(C2CCCCC2)C(C)c2cccnc2)cc1 (stereo not given)
    0.465 | 0.2
Cc1cc(C)c(/C=C(\C#N)C(N)=O)c(C)c1
    -0.62 | -0.7
CCOC(=O)c1cnc(SCC)[nH]c1=O
    nt | -0.45
CSc1ccc(CN(C)CC(=O)NC(=O)Nc2ccc3c(c2)OCCO3)cc1
    nt | 2.5
COc1ccc(CCNC(=O)CCn2c(SCC(=O)NCc3ccc(C)cc3)nc3ccccc3c2=O)cc1OC
    -0.475 | nt
COc1ccc(-c2[nH]c3ccccc3c2SCCNC(=O)c2ccc(OC)c(OC)c2)cc1
    -2.7 | 0.2
COc1cc(OC)nc(N2CCN(C=O)CC2)n1
    -0.64 | nt
O=C(CSCc1ccco1)NCc1ccccc1Cl
    -0.6 | -1.1
CCC(=O)N1c2ccc(C)cc2C2CN(C)CCC21 (stereo not given)
    -0.295 | nt
CCc1ccc(NC(=O)CCCN2C(=O)COc3ccc(C)cc32)cc1
    0.435 | 0.1
CS(=O)(=O)c1ccc(NS(=O)(=O)c2ccc3oc(=O)ccc3c2)c(Cl)c1
    -0.155 | nt
COc1ccc(/C=C(\C#N)C(=O)Nn2c(-c3cc(OC)c(OC)c(OC)c3)nc3ccccc3c2=O)cc1
    -1.14 | nt
NC(=O)c1ccccc1NC(=O)CS(=O)(=O)Cc1ccccc1
    0.52 | -0.7
O=C(COc1ccccc1)NCc1nc(-c2ccccc2)no1
    -0.51 | 0.1
O=C(OCc1cccc(Cl)c1)c1ccc2c(c1)OCO2
    -0.035 | -0.45
Fc1ccc(Nc2nc(-c3cccnc3)nc3ccccc23)cc1F
    1.09 | nt
CCC1N(c2ccccc2)CCN1c1ccccc1
    nt | 1.7
CN1CCN(CCCNC(=O)Cc2ccc(NC(=O)N3CCSc4ncccc43)cc2)CC1
    -0.375 | -0.6
COCCN(Cc1c(-c2cccs2)n(C)c2ccccc12)C(=O)Nc1ccccc1
    5.12 | 0.55
COc1cc2nc(=S)n3c(c2cc1OC)NC(=O)C3Cc1ccccc1 (stereo not given)
    -0.45 | nt
O=C(COc1ccc2oc(-c3ccccc3)cc(=O)c2c1)N1CCCCC1
    41.8 | 1.9
CN(C)C(=S)Nc1ccccc1OC(F)F
    -0.05 | -0.95
COc1ccc(C(=O)O)cc1
    nt | 0.65
COc1cc(Cl)c(C)cc1NC(=O)c1sc2ncn(CC(=O)Nc3ccc(C)c(Cl)c3)c(=O)c2c1C
    1.62 | nt
CC(C)(C)c1cc2nc(C(F)(F)F)cc(N3CCN(c4cc(C(F)(F)F)nc5cc(C(C)(C)C)nn45)CC3)n2n1
    1.18 | nt
CCOc1ccc(OCC)c(NC(=O)C(Cc2ccccc2)n2cccc2)c1 (stereo not given)
    -0.715 | -0.15
O=C1c2ccccc2S(=O)(=O)NN1CCN1C(=O)c2ccccc2S1(=O)=O
    nt | -0.35
Nc1ccccc1SCc1ccc2nonc2c1
    -0.75 | -1.6
O=C(c1ccccc1)N1CCC(O)(c2ccccc2)[C@H]2CCCC[C@H]21 (stereo not given in full)
    0.65 | -0.05
CC1=C(C#N)c2nc(N)c(C#N)c(C)c2/C1=C\c1ccccc1
    0.275 | -0.5
c1cc2c(nn1)CCc1nonc1-2
    0.51 | 0.8
FC(F)(F)COc1nc(N2CCOCC2)nc(N2CCN(c3ccccc3)CC2)n1
    -0.1 | nt
N#Cc1nc(-c2cccc(Cl)c2)oc1NCCc1ccccc1
    72 | 0
O=C(O)CC12CC3CC(C1)CC(C(=O)O)(C3)C2
    0.105 | 1.45
